# Source: PubChem
# Sa growth inh: S. aureus growth inhibition at 42 and 30 °C, primary screen, LtaS inhibitor project, RN4220, two temperatures | OD600, 20 h, 42 °C; hits give low values | relative growth, % (no concentration beside the values) | hit rate 0.53% among 170,000 | AID 720641, 2013;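 active = growth at 42 °C up to 50% and 20 or more points under that at 30 °C, or under 10% at both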;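 note: 300 nL library stock went into each well; scaled to the means of positive and negative controls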
# GIV-Gai inh: inhibitors of GIV peptide binding to Galpha-i3, primary screen, biochemical, fluorescence polarization, FITC-GIV GBA peptide, rat Galphai3 | Guanine nucleotide-binding protein G(i) subunit alpha-3 (Rattus norvegicus), P08753 | 90 min; hits give low values; scaled: aluminum fluoride 0%, vehicle 100% | percent of control (FP), % (concentration not given with the values) | hit rate 0.42% among 210,000 | AID 1224905, 2016;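 active = replicate mean at 85% of control or lower, very high polarization wells dropped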;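 note: wells of about 15 µL received 100 nL stock; the first replicate is given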
# Target sequence (P08753 whole entry, looked up): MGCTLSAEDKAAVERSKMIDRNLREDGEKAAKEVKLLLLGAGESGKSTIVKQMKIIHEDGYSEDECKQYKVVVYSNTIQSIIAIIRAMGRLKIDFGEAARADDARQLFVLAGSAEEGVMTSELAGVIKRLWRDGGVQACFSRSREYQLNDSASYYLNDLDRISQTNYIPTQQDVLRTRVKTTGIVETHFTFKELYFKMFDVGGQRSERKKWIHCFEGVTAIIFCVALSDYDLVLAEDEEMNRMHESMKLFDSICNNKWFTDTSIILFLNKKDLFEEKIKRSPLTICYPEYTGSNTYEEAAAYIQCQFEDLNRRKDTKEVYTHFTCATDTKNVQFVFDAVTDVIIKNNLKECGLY
# HCMV UL50-53 inh: inhibitors of HCMV UL50-UL53 interaction, biochemical, HTRF. normalized percent inhibition. inhibition, % (test concentration not listed). hit rate 0.15% among 190,000;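 active = both replicates at 50% or more, plus weaker picks with an unusually low signal ratio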;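 note: stock transfer was 100 nL into about 20 µL; 0% = negative control wells and 100% = wells with untagged competitor protein; inactives centre near -12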
# Sa growth inh second temp: further read-out of Sa growth inh, marked with its call; relative growth, %; measured here: growth at 30 °C;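 optical density after 20 h as mean of two plates; 100% = untreated growth and lower means inhibition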
# * hit, by the source's call; . = no result given; & = joins results of further samples.
SMILES,Sa growth inh,Sa growth inh second temp,GIV-Gai inh,HCMV UL50-53 inh
CCCc1c(C(=O)NCc2ccc3c(c2)OCO3)cnn1-c1ccccc1,103,92,96,-23
COc1ccc(-c2nnc(SCC(=O)Nc3ccccc3C)o2)cc1OC,104,86,95,-15
COc1ccc(CNCc2ccc(C(=O)O)s2)cc1,97,84,102,-38
Cc1ccccc1C(=O)OCc1cnc(Cl)s1,.,.,95,-20
Cn1c(=O)c2c(-c3ccccc3Cl)n(-c3cc(Cl)ccc3O)cc2n(C)c1=O,118,94,101,0
CC1=C(c2ccc(C)cc2)S(=O)(=O)NC1=NCCCN1CCC(Cc2ccccc2)CC1,.,.,107,-1
N#CCCn1cnc2ccccc21,113,87,.,-13
CO/N=C(/C)c1ccc2c(c1)CCO2,104,99,100,-4
COc1cccc(-n2c(=O)c3c4c(sc3n(Cc3ccc(F)cc3Cl)c2=O)CCCC4)c1,86,104,101,11
Cn1c(CC(=O)Nc2ccccc2F)nnc1SCC(=O)N1CCOCC1,101,97,115,21
CCOc1ccc(-n2c(SCC(=O)Nc3cc(C)ccc3C)nc3c([nH]c4ccccc43)c2=O)cc1,109,87,96,.
CN(C)c1ccc(C(CNS(=O)(=O)c2ccccc2Cl)N(C)C)cc1 (configuration not stated),.,.,101,-10
COc1ccc2nc(-c3cccc(N)c3)[nH]c2c1,105,102,102,-20
Cc1ccc(NC(=O)Cn2c(=O)n(-c3ccccc3)c(=O)c3c4c(sc32)CCCC4)cc1,106,96,109,-36
CC1=C(C(=O)OCCOc2ccccc2)C(c2coc3ccc(C)cc3c2=O)C2=C(CC(C)(C)CC2=O)N1 (configuration not stated),.,.,101,-22
COC(=O)c1c(-c2cccs2)csc1NC(=O)c1ccc(Cl)cc1,103,81,109,-3
CC(C)C(=O)Nc1ccc2nc(SCc3cc(=O)n4nc(C(C)C)sc4n3)sc2c1,117,91,107,-38
Cn1c(=O)n(CC(=O)O)c(=O)c2c1nc1n2CCN1c1ccc(F)cc1,.,.,85*,0
O=C(CCCN1C(=O)c2ccccc2C1=O)Oc1ccccc1,98,85,.,-50
CC(Oc1ccc(Cl)cc1Cl)C(=O)N1CCN(C(=O)c2ccco2)CC1 (configuration not stated),95,79,104,6
Oc1ccccc1C=Nc1ccc(-c2nc3ccccc3s2)cc1,113,66,108,.
COc1ccc(-n2c(=S)[nH]c3cc(C(=O)NCc4ccco4)ccc3c2=O)cc1,101,102,106,13
Nc1nc2ccccc2n2nnnc12,105,88,.,-30
Cc1cccc(OCCSc2nc3ccccc3n2CC(=O)N2CCCCC2)c1C,90,79,103,-11
CN(C1CC2C=CC1C2)S(=O)(=O)c1cc(Cl)sc1Cl (configuration not stated),64,89,100,-13
Cc1ccc(Nc2nc(N)nc(COC(=O)c3ccccc3NS(C)(=O)=O)n2)cc1,107,93,.,-29
O=S1(=O)C[C@H](NCCc2c[nH]c3ccccc23)[C@@H](S(=O)(=O)c2ccc(Cl)cc2)C1,.,.,102,-4
COC(=O)c1cccc(C(=O)OC)c1Cl,94,90,96,-3
C=CCn1c(=N)n(CC(=O)O)c2ccccc21,96,89,102,-16
Cc1nn(-c2ccccc2)nc1C(=O)N1CCCc2ccccc21,92,90,106,22
COc1ccc(CNS(=O)(=O)c2ccc(-c3cc(C(F)(F)F)on3)s2)cc1OC,176,108,111,.
O=C(c1ccc(Oc2ccccc2)cc1)c1coc2ccc(O)cc12,121,94,.,-4
O=C(CSc1nnc(Cc2cc(=O)[nH]c(=O)[nH]2)n1-c1ccccc1)N1CCCc2ccccc21,124,93,100,2
CCOc1ccccc1CNC(=O)C1CCN(S(=O)(=O)c2ccc3c(ccn3C)c2)CC1,89,89,101,.
CCCCS(=O)(=O)NC1=NCN(CCO)CN1,89,88,103,.
O=C(Nc1ccccc1C(=O)N1CCN(Cc2ccccc2)CC1)c1ccccn1,128,80,.,0
CN(Cc1nc2ccccc2c(=O)[nH]1)Cc1cc(=O)oc2cc3c(cc12)CCC3,99,88,.,-16
O=C(O)CCN1C(=O)c2cccnc2Sc2ccccc21,97,85,106,-18
CCOC(=O)C1=C(C)NC2=C(C(=O)CC(C)(C)C2)C1c1ccc(OCc2cccc(F)c2)c(OC)c1 (configuration not stated),.,.,105,-4
Cc1cccc(NC(c2cccnc2)c2c(NC(=O)c3ccccc3)sc3c2CCCC3)n1 (configuration not stated),.,.,102,-18
O=C(CSc1nc2cc(Cl)ccc2o1)NCc1ccccc1,104,103,.,12
Cn1c(=O)[nH]c(=O)c2c1nc(N1CCCC1)n2CCO,102,75,107,-13
Cc1ccc(CC(=S)N2CCOCC2)cn1,73,84,102,-14
Cc1ccc2nc(NCc3ccccc3)sc2c1,98,92,.,-30
CCCCN(C)c1ncnc2oc(C)c(C(=O)OCC)c12,100,86,100,-29
O=C1COc2cc(S(=O)(=O)N3CCCC3C(=O)Nc3ccccc3)c(Cl)cc2N1 (configuration not stated),.,.,103,16
CC1Cc2cc(S(=O)(=O)N(C)CC(=O)Nc3cccnc3)ccc2N1C(=O)C1CC1 (configuration not stated),.,.,105,-13
CCOc1cc(/C=C2/C(=O)NC(=O)N(c3ccccc3)C2=O)ccc1OCC(=O)O,.,.,106,-7
COc1ccc(NC(=O)CN2C(=O)CCc3cc(S(=O)(=O)N4CCOCC4)ccc32)c(OC)c1,77,87,101,.
CCN(CC)C(=O)CSc1nnc(C)s1,75,93,99,-2
COc1ccccc1N1CCN(C(=O)c2ccc(Cl)cc2Cl)CC1,101,96,97,41
COC(=O)c1cc2oc3ccccc3c2n1Cc1cc(C)ccc1C,92,97,108,23
COc1ccc(C(=O)N(Cc2cc(OC)c(OC)c(OC)c2)c2ccccn2)cc1,102,85,103,-8
COC(=O)c1cc(OC)c(OC)cc1NC(=O)c1ccc2c(c1)CCN2S(C)(=O)=O,96,96,100&101,-2&-14
O=C(COC(=O)CN1C(=O)C2CC=CCC2C1=O)Nc1cccc2nsnc12 (configuration not stated),107,88,.,-72
O=c1c2c3c(sc2n2cnnc2n1-c1ccccc1)CCCCC3,94,81,103,-14
CC1CCCN(C(=O)c2ccc(Cl)nc2)C1 (configuration not stated),118,86,.,-8
Cc1cc(C)n2nc(SC(C)C(=O)NCc3ccc4c(c3)OCO4)nc2n1 (configuration not stated),80,84,100,-27
CN1CCN(c2ccccc2NC(=O)c2cccnc2Sc2ccccc2)CC1,90,96,.,-23
CCOC(=O)c1ccsc1NC(=O)C1C2C=CC(C2)C1C(=O)O (configuration not stated),103,99,103,10

# 17 compounds from above, ordered by formula weight, smallest number first.
SMILES,Sa growth inh,Sa growth inh second temp,GIV-Gai inh,HCMV UL50-53 inh
Cc1ccc(CC(=S)N2CCOCC2)cn1,73,84,102,-14
CC1CCCN(C(=O)c2ccc(Cl)nc2)C1 (configuration not stated),118,86,.,-8
CCN(CC)C(=O)CSc1nnc(C)s1,75,93,99,-2
Cc1ccc2nc(NCc3ccccc3)sc2c1,98,92,.,-30
CCCCN(C)c1ncnc2oc(C)c(C(=O)OCC)c12,100,86,100,-29
O=C(CSc1nc2cc(Cl)ccc2o1)NCc1ccccc1,104,103,.,12
CCOC(=O)c1ccsc1NC(=O)C1C2C=CC(C2)C1C(=O)O (configuration not stated),103,99,103,10
COc1ccccc1N1CCN(C(=O)c2ccc(Cl)cc2Cl)CC1,101,96,97,41
Cc1cc(C)n2nc(SC(C)C(=O)NCc3ccc4c(c3)OCO4)nc2n1 (configuration not stated),80,84,100,-27
O=C(COC(=O)CN1C(=O)C2CC=CCC2C1=O)Nc1cccc2nsnc12 (configuration not stated),107,88,.,-72
CN1CCN(c2ccccc2NC(=O)c2cccnc2Sc2ccccc2)CC1,90,96,.,-23
COc1ccc(C(=O)N(Cc2cc(OC)c(OC)c(OC)c2)c2ccccn2)cc1,102,85,103,-8
CCOc1cc(/C=C2/C(=O)NC(=O)N(c3ccccc3)C2=O)ccc1OCC(=O)O,.,.,106,-7
CC1Cc2cc(S(=O)(=O)N(C)CC(=O)Nc3cccnc3)ccc2N1C(=O)C1CC1 (configuration not stated),.,.,105,-13
COC(=O)c1cc(OC)c(OC)cc1NC(=O)c1ccc2c(c1)CCN2S(C)(=O)=O,96,96,100&101,-2&-14
O=C1COc2cc(S(=O)(=O)N3CCCC3C(=O)Nc3ccccc3)c(Cl)cc2N1 (configuration not stated),.,.,103,16
COc1ccc(NC(=O)CN2C(=O)CCc3cc(S(=O)(=O)N4CCOCC4)ccc32)c(OC)c1,77,87,101,.

# Next section
SMILES,Sa growth inh,Sa growth inh second temp,GIV-Gai inh,HCMV UL50-53 inh
COc1ccc(C2NC(=S)NC(C)=C2C(N)=O)cc1 (configuration not stated),96,89,99,.
CCCOc1ccc(C2CC(=O)Nc3c2c(=O)n(C)c(=O)n3C)cc1OC (configuration not stated),105,91,105&100,-6&-29
O=C(CSC1=NNC(c2ccccn2)S1)Nc1ccccc1 (configuration not stated),98,97,103,-2
CN(C(=O)CCS(=O)(=O)c1cc2c(cc1Cl)NC(=O)CO2)C1CCCCC1,91,83,102,.
Cc1cc(OC(C)C(=O)Nc2sc3c(c2C(N)=O)CCCC3)ccc1Cl (configuration not stated),114,88,104,-17
CCc1cccc(CC)c1NC(=O)CN1C(=O)C(=O)c2ccccc21,91,95,103,-9
Cc1ccc(/C=N\NC(=O)c2cc(C)oc2C)cc1,95,95,105,-20
COc1ccccc1N1CCN(c2nc3c(S(=O)(=O)c4ccc(C)c(C)c4)nnn3c3ccc(Cl)cc23)CC1,89,85,98,-15
CC1CCCC(C)N1CC(O)Cn1cc(/C=N/O)c2ccccc21 (configuration not stated),100,92,99,.
COc1ccc(NC(=O)c2cc(S(=O)(=O)N3CCCCCC3)cn2C)c(OC)c1,93,90,99,.
O=C(CCSCc1ccc(Cl)cc1)NCc1cccnc1,114,89,98,-4
CC(=O)N1CCC(N(c2ccc3c(c2)OCO3)S(=O)(=O)c2ccccc2)CC1,84,73,102,-30
CCOc1ccc(NC(=S)NC(C)(C)C)cc1,92,94,96,2
CSc1ncccc1C(=O)Nc1ccnn1Cc1ccccn1,110,104,.,3
Cc1cc(C)c(Cn2cccc2C2=NC(C(C)C)CO2)c(C)c1 (configuration not stated),89,84,94,-18
O=C(NCCCN1CCN(c2cccc(Cl)c2)CC1)c1cc(=O)n2c(nc3ccccc32)s1,.,.,99,-27
CCOC(=O)N1CCN(C(=O)CN2C(=O)c3cc(Cl)c(Cl)cc3C2=O)CC1,105,97,100,-8
O=c1[nH]c2sc3c(c2c(=O)n1-c1ccccc1)CCCC3,78,99,99,-26
c1cncc(Cc2nnc(N3CCC4(CC3)OCCO4)c3ccccc23)c1,97,89,105,5
N#Cc1c(N)nc(SCC(=O)c2ccc(Cl)cc2)c(C#N)c1-c1ccco1,92,93,107,-14
COc1ccc(Br)c(-c2nc(CS(=O)(=O)c3ccsc3)no2)c1,114,108,104,-3
Cc1ccc(C)c(S(=O)(=O)Nc2ccccc2C(=O)OCc2nnc(-c3ccccc3)o2)c1,129,108,.,-10
CCOc1cc(C2c3c(-c4ccccc4O)n[nH]c3C(=O)N2CCc2ccccc2)ccc1O (configuration not stated),101,66,103,2
CC(C)COC(=O)c1c(N)n(-c2ccc(S(N)(=O)=O)cc2)c2nc3ccccc3nc12,120,95,104,-17
CCOC(=O)NS(=O)(=O)c1ccccc1,91,88,.,-1
Cc1cc(C)cc(NC(=O)CCCc2nnc3n(CC(C)C)c(=O)c4sccc4n23)c1,125,86,104,.
S=C(Nc1ccc2c(c1)OCCO2)Nc1ccccc1N1CCOCC1,102,83,103,-29
NC(=O)N/N=C/CCc1ccccc1,117,88,.,-15
COc1ccc(Br)cc1CNc1nc(C)nc2c(-c3ccc(Cl)cc3)noc12,.,.,93,-21
NCc1nc2ccccn2c1Br,90,34,.,-27
COc1cccc(/C=C2\CCC(C3CCCC3)C2=O)c1OC (configuration not stated),94,74,100,.
COc1ccc(C2C(C#N)=C(N)OC3=C2C(=O)CC(c2ccccc2)C3)cc1 (configuration not stated),91,87,101,-10
CN(C)c1nc(C2CC2)nc2c1nnn2Cc1ccccc1Cl,92,80,107,18
Cn1c(-c2ccc3nc(-c4ccc(N)cc4)[nH]c3c2)nc2cc(N)ccc21,84,74,.,-14
Cc1nn(CC(=O)NC2CCCCCC2)c(=O)c2cc3occc3n12,86,90,102,-3
COc1ccc(C(=O)OCC(=O)N2C(C)CCCC2C)cc1 (configuration not stated),97,101,.,-6
CCC1CN(C(=O)N2CCC(C(=O)NCc3cccs3)CC2)c2cc(C)ccc2O1 (configuration not stated),105,83,107,-9
CCCN1CCN(CCNC(=O)Nc2cc(Cl)c(OC)cc2OC)CC1,98,91,96,-15
COc1ccc(Cn2ccc3nc(C)c(C(=O)N4CCN(c5ccc(F)cc5)CC4)cc3c2=O)cc1,97,84,98,.
CC(=O)Nc1cccc(C(=O)NCC2(N3CCCCC3)CCCCC2)c1,99,95,.,-27
CCC(C(=O)OC)n1cnc2sc(C(=O)Nc3ccccc3)c(C)c2c1=O (configuration not stated),95,87,.,-7
CSc1nn(Cc2cccc(F)c2)c(N(C(C)=O)C(C)=O)c1S(=O)(=O)c1ccccc1,89,86,100,4
O=c1[nH]c2ccccc2nc1NCc1ccccc1,81,80,100,-29
Cc1nc(CS(=O)(=O)c2ccccn2)sc1C(=O)NN,119,87,104,-24

# Rows are unselected. About 0.8% of those tested had a hit in this group.
